AmpC nodet inh: AmpC beta-lactamase inhibition, detergent-free assay; AmpC nitrocefin hydrolysis, absorbance 480 nm, no detergent; potencies from a single point are estimates; Potency, µM (highest dose often 28.7 µM), for inactives: top-dose activity change, negative = inhibition; actives 1.8% (n = 71,000); AID 585; active = falling curve, for most hits resting on a single point; inconclusive = weak or doubtful change; inactive = flat or rising curve; note: % of control where 0% means no effect; about half of the hits show no inhibition at the top dose; a quarter of the inactives give rising signals
Target sequence (P00811 whole entry, looked up): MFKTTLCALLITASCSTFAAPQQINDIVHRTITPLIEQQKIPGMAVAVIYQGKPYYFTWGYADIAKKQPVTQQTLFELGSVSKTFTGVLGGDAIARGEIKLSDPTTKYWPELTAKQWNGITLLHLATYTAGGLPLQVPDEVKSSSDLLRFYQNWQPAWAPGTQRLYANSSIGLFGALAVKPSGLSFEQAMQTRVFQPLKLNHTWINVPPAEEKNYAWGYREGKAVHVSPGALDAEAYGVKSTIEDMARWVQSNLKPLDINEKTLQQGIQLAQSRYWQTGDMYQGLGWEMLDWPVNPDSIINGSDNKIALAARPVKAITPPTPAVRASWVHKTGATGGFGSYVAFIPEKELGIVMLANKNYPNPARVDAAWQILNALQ
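AmpC, 20 mM phosphate pH 7.0; 15 min cpd preinc, RT; start with nitrocefin (800 uM stock); A480 kinetic read, 20 s intervals, 4 min. No-enzyme wells = negative control.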
Numbers without * were called inactive; & = joins results of further samples; [ ] = another dose, or the depositor's remark. Potency is the fitted concentration of half-maximal effect.

Structure	AmpC nodet inh
CCC(C)[C@H](NC(=O)N1CCCC1)C(=O)O (stereo partly drawn)	-1%
COc1ccc2cc(CCC(C)=O)ccc2c1	7%[12.8 µM]
COc1cc2c(cc1OC)CN(C(=O)CCCN1C(=O)c3ccccc3C1=O)CC2	21%
Clc1ccccc1	4%
O=C(CCn1c(=O)c2sccc2n(Cc2cc(=O)n3ccccc3n2)c1=O)NCc1ccco1	1%
NC(=O)C1CCN(c2nc(-c3ccccc3)nc3c2oc2ccccc23)CC1	29%
Cn1c(SC/C=C/c2ccccc2)nnc1-c1cnccn1	16%
COC(=O)c1c(NC(=O)CN2CCN(c3ccccc3OC)CC2)c2c(C)cccc2n1C	149%
CC1=C(C(=O)OCc2ccc3c(c2)OCO3)C(c2ccccc2)NC(=O)N1 (stereo not drawn)	-3%
Cc1nc(-c2cccc(-c3noc(C)n3)c2)no1	13%
CS(=O)(=O)N1CCC2(CCCN(C(=O)Nc3cccc(C#N)c3)C2)CC1	40%
O=C(Nc1c(C(=O)N2CCOCC2)cnn1-c1ccccc1)c1ccccc1	9%

Further compounds follow.
Structure	AmpC nodet inh
COc1ccccc1N1C(=O)C2CC=CC(C)C2C1=O (stereo not drawn)	2%
CSC(=O)CC(=O)NC(=O)c1ccccc1	-15%
COC(=O)[C@H](CCSC)NC(=O)NCc1cccs1	-10%
CCc1nnc(NC(=O)C2CCCN2C(=O)Nc2ccccc2OC)s1 (stereo not drawn)	-8%
COC(=O)c1cc2ccsc2n1CC(=O)NCC1CCCO1 (stereo not drawn)	1%
Cn1nc(C(=O)OCCN2C(=O)c3ccccc3C2=O)c2ccccc2c1=O	55%
CCCCn1c(CNC(=O)c2cccs2)nc2ccccc21	12%
Nc1ccc[n+](Cc2ccccn2)c1	-2%
O=C(COC(=O)C1(c2ccc(F)cc2)CCCC1)N1CCOCC1	44%
CCCCCn1c(CN2CCN(C(=O)OCC)CC2)nc2c1c(=O)n(C)c(=O)n2C	127%
CC(=O)c1cccc(NC(=O)N2CCCC2C(=O)Nc2cc(C)ccc2C)c1 (stereo not drawn)	7%
Cc1cc(O)c(/C=N/c2ccccn2)c(=O)o1	0%

The listing continues:
Structure	AmpC nodet inh
CCOc1ccc2[nH]c(=O)c(CN(Cc3cccs3)Cc3nnnn3C(C)(C)C)cc2c1	98%
CCN(CC)S(=O)(=O)c1csc(C(=O)NCc2ccccc2)c1	-21%
O=C(CN1C(=O)CCC1=O)Nc1ccc(Br)cc1	-9%
COc1cc(OC)cc(-c2nnc(SCC(=O)N(C(C)C)C(C)C)o2)c1	105%
CCN(CC)Cc1c(O)ccc2c(-c3ccccc3)cc(=O)oc12	5%
Cc1ccc(C(=O)OCc2nnc(-c3ccccc3)o2)o1	-2%
O=S(=O)(NCCc1cn2ccccc2n1)c1ccc(F)c(C(F)(F)F)c1	9%
CC(=O)Oc1ccc(N2C(=O)C3C4C=CC(O4)C3C2=O)cc1 (stereo not drawn)	-11%
COCCn1c(N)c(C(=O)NCc2cccs2)c2nc3ccccc3nc21	116%
O=C(NC1CCN(Cc2nnnn2CCc2ccccc2)CC1)c1ccccc1F	45%
CC12CN3CC(C)(CN(C1)C3c1ccc(Br)cc1)C2 (stereo not drawn)	-2%
c1ccc(COn2c(-c3ccccc3)nc3c2CCc2nonc2-3)cc1	-14%

(cont.)
Structure	AmpC nodet inh
CN(Cc1nc2ccccc2n1C)C(=O)c1cccs1	-2%
CCc1nc(Nc2ccc(N3CCN(C(C)=O)CC3)cc2)c2oc3ccccc3c2n1	109%
c1ccc2c(c1)CCCC2NC1=NCCC1 (stereo not drawn)	-15%
Cc1cc(C)cc(C(=O)/C=C2\NC(=O)CS2)c1	-16%
CCCc1cc(=O)oc2cc3oc(C)c(C)c3cc12	-9%
COc1cc(-c2noc(-c3ccccc3C(=O)NCc3ccco3)n2)cc(OC)c1OC	46%
O=C(O)[C@@H]1C[C@@H](C(=O)O)N1	3%
COc1ccc(-c2onc3ccc(Cl)cc23)cc1OC	89%
CCc1c2c(nc3ccc(OC)cc13)OC(C)C2 (stereo not drawn)	7%
CC1(C)Cc2c(c(-c3ccco3)nc3n[nH]c(N)c23)CO1	-10%
COc1ccc(C(=O)Nc2ccccc2C(=O)NCc2ccco2)cc1OC	14%
O=C(NCCN1CCOCC1)c1cccc(Cl)c1	3%

Additional results follow.
Structure	AmpC nodet inh
O=c1cnc2cnc(OCc3ccccc3)nc2n1Cc1ccc(F)cc1	54%
O=C(CN(c1cccc(C(F)(F)F)c1)S(=O)(=O)c1ccccc1)N1CCOCC1	59%
c1ccc(CCNc2ccc3nncn3n2)cc1	3.2µM*[single pt active]
O=C(Cn1nnc(-c2ccccc2Cl)n1)N1CCN(S(=O)(=O)c2ccc(Cl)cc2)CC1	24%
CN1CCN(CC(O)COCc2ccc3c(c2)OCO3)CC1 (stereo not drawn)	0%
CCn1c(CSc2nnc(-c3cccnc3)n2-c2ccccc2C)nc2cc(C(=O)O)ccc21	-11%
CCCCC(=O)Nc1ccc2oc(-c3cccnc3)nc2c1	21%
CC(=O)Nc1ccc2c(c1)n(C)c(=O)n2C	-8%
CN1CCCCc2c1nc1c(c2N)CCCC1	91%
CC1CCN(c2nc3c(c(=O)[nH]c(=O)n3C)n2CCCc2ccccc2)CC1	88%
CCOc1ccccc1NC(=O)C1CCCN(C(=O)NCc2ccccc2)C1 (stereo not drawn)	10%
CCOc1ccc(NC(=O)CN2CCN(CC(=O)Nc3cc(OC)cc(OC)c3)CC2)cc1	119%

The listing continues:
Structure	AmpC nodet inh
CC(=O)N1[C@H](Cc2ccccc2)C=C[C@]1(C)C(=O)NCCN1CCOCC1	14%
C=CCn1c(SCC(=O)Nc2ccc3c(c2)OCO3)nc2ccccc2c1=O	-5%
COc1nc(-c2ccccc2)ccc1-c1noc(-c2ccccc2)n1	-17%
Cc1ccccc1Cn1ccc(NC(=O)c2cnn3c(C(F)(F)F)cc(-c4ccco4)nc23)n1	20%
CCOC(=O)c1sc(N)c(C#N)c1COC(=O)CNC(=O)c1ccccc1	1%
COc1ccc(OC)c(-c2cc(C(=O)Nc3c(C)nn(Cc4ccc(Cl)cc4)c3C)no2)c1	73%
Cn1c(CCNC(=O)c2ccco2)nc2cc(NS(=O)(=O)c3ccc(Cl)cc3)ccc21	21%
CN(C)c1nc(N)nc(Nc2ccccc2C#N)n1	-1%
CC(=O)N(CCCc1ccc(C(C)(C)C)cc1)CCCN(C)C	53%
Brc1ccccc1-c1nnc(-c2cccnc2)o1	2%
N#Cc1ccc(OCC(=O)N2CCN(S(=O)(=O)c3cccs3)CC2)cc1	-4%
CC(N=c1ccccn1C(=O)Nc1ccc(F)cc1)c1ccco1 (stereo not drawn)	-2%

(listing goes on)
| Compound | AmpC nodet inh |
| --- | --- |
| CCOc1ccc(OCC)c(NC(=O)C2CCCN(S(=O)(=O)c3cccs3)C2)c1 (stereo not drawn) | 49% |
| CC(C)(C)c1ccc(O)c(O)c1 | -9% |
| COc1ccccc1CNC(=O)CS(=O)Cc1nc(-c2ccccc2C)oc1C (stereo not drawn) | 62% |
| O=C(NC(Cc1ccccc1)C(=O)N1CCCC1C(=O)O)c1ccccc1 (stereo not drawn) | -2% |
| Cc1ccc(C)n1-c1cccc(C(=O)O)c1 | -10% |
| Cn1c(=O)n(CCc2ccccc2)c(=O)c2c1nc1n2CCCN1c1ccccc1 | 60% |
| CC1CN(C(=O)c2cccs2)CCN1C(=O)c1cccs1 (stereo not drawn) | 70% |
| CC(C)C(C(=O)NCC1CCCO1)N(Cc1ccco1)C(=O)CNS(=O)(=O)c1ccccc1 (stereo not drawn) | 38% |
| CC(C)[C@H](CO)Nc1nc(Nc2cc(N)cc(Cl)c2)c2ncn(C(C)C)c2n1 | 77% |
| O=C(O)[C@@H](O)Cc1ccccn1 | 3%[5.75 µM] |
| Cc1ccccc1NC(=O)N1C2CCCC1CC(NC(=O)C(C)(C)C)C2 (stereo not drawn) | 5% |
| FC(F)(F)c1ccccc1-c1nccc(NCc2ccccc2)n1 | -5% |
| Cc1n[nH]c(C)c1S(=O)(=O)N1CCC(C(=O)O)CC1 | -12% |
| CCOC(=O)c1c(C)[nH]c(C(=O)OC)c1CCC(=O)OC | 11% |
| N[C@]1(C(=O)O)CCc2cc(C(=O)O)ccc21 | 22%&3% |
| CCN1C(=C2C(=O)c3ccccc3C2=O)C=Cc2ccccc21 | -3% |
| CCN(CC)c1ccc(/C=N/n2nnnc2N)c(O)c1 | -10% |
| CC(C)Cc1cc(C(=O)NCc2cccs2)no1 | -7% |
| CCOc1cc(Br)c(C(=O)O)cc1OCC | -22% |
| CCOC(=O)c1ccc(CC(=O)c2oc3cc(O)ccc3c2C)o1 | -20% |
| O=C(Nn1c(-c2ccccc2)nc2ccccc2c1=O)c1ccco1 | 67% |
| CC(=O)N1CC2(C)CN(C(C)=O)CC(C)(C1)C2O (stereo not drawn) | -12% |
| Oc1c(C(c2cccs2)N2CCN(c3cccc(Cl)c3)CC2)sc2ncnn12 (stereo not drawn) | 42% |
| O=C(CN(C1CCCCC1)S(=O)(=O)c1ccc(Cl)cc1)NCc1ccncc1 | 83% |
| CCc1nnc(NC(=O)C2CCCN2S(=O)(=O)c2ccc(F)cc2)s1 (stereo not drawn) | -2% |
| CCN(CC)C(=O)CSC1=Nc2ccccc2C2=NC(Cc3c[nH]c4ccccc34)C(=O)N12 (stereo not drawn) | 67% |
| CCn1c2ccccc2c2nn(C)c(=N)nc21 | -3% |
| Cc1ccc(C(C)C)cc1S(=O)(=O)NCc1cccnc1 | 33% |
| C[N+](C)(C)CC(=O)N/N=C\c1c(O)ccc2ccccc12 | 7%[5.75 µM] |
| CC(=O)c1cc2c(cc1NC(=O)CN1CCCCC1C)OCO2 (stereo not drawn) | 24% |

Taken from above:
AmpC nodet inh with CC(=O)c1cc2c(cc1NC(=O)CN1CCCCC1C)OCO2 (stereo not drawn) stands at 24%
AmpC nodet inh with C[N+](C)(C)CC(=O)N/N=C\c1c(O)ccc2ccccc12 stands at 7%[5.75 µM]

Continued:
| Compound | AmpC nodet inh |
| --- | --- |
| CN1C(=O)CSc2ccc(NC(=O)N3CCOCC3)cc21 | -7% |
| C=C(CC1(C(C)NP(=O)(c2ccccc2)c2ccccc2)CC1)c1ccccc1 (stereo not drawn) | 127% |
| Cn1ccnc1C[C@@](C)(O)c1ccccc1 | -8%[5.75 µM] |
| COc1ccc(-c2noc(COc3ccc(Cl)c(C)c3)n2)cc1 | 15% |
| COc1ncc2nc(-c3ccccc3)c(=O)n(CCc3ccccc3)c2n1 | 25% |
| CC1CCCC(C)N1C(=O)CSc1nnc(-c2c[nH]c3ccccc23)o1 (stereo not drawn) | 45% |
| CC(=O)NCCn1c(SCC(=O)NCc2ccco2)nc2ccccc2c1=O | 7% |
| COc1cccc(CN(C)CC(=O)NC(=O)NCc2ccco2)c1 | 14% |
| O=c1nc2scc(-c3ccccc3)n2c2ccccc12 | -9% |
| COc1ccc(OCC(=O)N2CCN(C(=O)COc3ccccc3)CC2)cc1 | 32% |
| Cc1cccc(C2Nc3ccccc3C(=O)N2CCc2ccccc2)n1 (stereo not drawn) | -8% |
| COc1cc(/C=c2\s/c(=C(/C#N)C(=O)N3CCCC3)n(-c3ccccc3)c2=O)ccc1O | 35% |
| CCc1nc2c3cnn(-c4cc(Cl)ccc4C)c3ncn2n1 | -7% |
| CCOC(=O)c1c(C)n(C)c2ccc(OCC(O)Cn3c(C)nc4ccccc43)cc12 (stereo not drawn) | 151% |
| CCOC(=O)C1CCN(C(=O)c2cccc(Cl)c2)CC1 | 13% |
| O=C(O)Cc1ccc(NC(=O)C2CC=CCC2C(=O)O)cc1 (stereo not drawn) | -17% |
| COc1cccc(NC(=O)CCN2CCC(C(N)=O)CC2)c1 | -10% |
| CCOC(=O)C1CCCN(C(=O)c2cn(C)c3ccc(S(=O)(=O)N(C)C)cc3c2=O)C1 (stereo not drawn) | 27% |
| c1ccc2c(NC3=NCCS3)cccc2c1 | -12% |
| CN(CC(=O)N1CCc2ccccc21)S(=O)(=O)c1cccc2cccnc12 | 0% |
| O=C(Nc1ccc(S(=O)(=O)N2CCc3ccccc32)cc1)c1ccco1 | -25% |
| CCC(CC)C(=O)NCCc1cc2ccc(OC)cc2[nH]c1=O | 3% |
| O=C(O)c1ccc(S(=O)(=O)N=Nc2c(O)[nH]c3ccccc23)cc1 | -6%[5.75 µM] |
| O=C(COC(=O)CCc1c[nH]c(=O)[nH]1)Nc1ccccc1 | -5% |
| COc1ccc(N/C=C2/CCCCC2=O)cc1 | 6% |
| CCCn1c(C(O)c2ccc3c(c2)OCO3)nc2ccccc21 (stereo not drawn) | 18% |
| Cc1ccc(C)c(C(=O)C(C)OC(=O)c2cccn2C)c1 (stereo not drawn) | 12% |
| Fc1ccc(-c2cc(C(F)(F)F)nc(-n3cncn3)n2)cc1 | 10% |
| O=C(OCC(=O)N1CCCCCC1)c1cccs1 | 12% |
| O=C(COC(=O)CCC(=O)Nc1nccs1)NCc1ccco1 | 2% |

Looked up by structure from above, 7 records:
| Compound | AmpC nodet inh |
| --- | --- |
| COc1ccc(-c2noc(COc3ccc(Cl)c(C)c3)n2)cc1 | 15% |
| CCOC(=O)C1CCN(C(=O)c2cccc(Cl)c2)CC1 | 13% |
| O=C(OCC(=O)N1CCCCCC1)c1cccs1 | 12% |
| CCOC(=O)C1CCCN(C(=O)c2cn(C)c3ccc(S(=O)(=O)N(C)C)cc3c2=O)C1 (stereo not drawn) | 27% |
| O=c1nc2scc(-c3ccccc3)n2c2ccccc12 | -9% |
| CN1C(=O)CSc2ccc(NC(=O)N3CCOCC3)cc21 | -7% |
| O=C(O)Cc1ccc(NC(=O)C2CC=CCC2C(=O)O)cc1 (stereo not drawn) | -17% |

The list goes on:
| Compound | AmpC nodet inh |
| --- | --- |
| COc1ccc(F)c(C2C(C#N)=C(N)Oc3n[nH]c(C(C)(C)C)c32)c1 (stereo not drawn) | 22% |
| CN1C(=O)C(=C2CCCCCC2)SC1=S | 2% |
| CSc1nc(N2CCOCC2)c2c(c1C#N)CCCCC2 | 29% |
| FC(F)(F)c1cccc(N2CCN(Cc3ccoc3)CC2)c1 | 23% |

Bioassay records from PubChem.

A portion of the library (hit frequency here may not be typical).
